High-throughput results: PubChem BioAssay, Fisher Drug Discovery Resource Center
NPYLR7 agonist = mosquito NPYLR7 agonism | HEK293T NPYLR7/Galpha15, GCaMP6s calcium fluorescence | activation, % at 10 µM | actives 0.15% (n = 270,000); in the data active = activation above about 40%;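 also: 0% = vehicle and 100% = reference agonist at the receptor; some compounds past the cut are filed as inactive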
NPYLR7 agonist max-min = second read-out of NPYLR7 agonist, no call of its own (marks repeat the call); activation, %; measured here: Max-Min RFU normalised activation; some inactives read as strong as hits;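 span of the calcium signal over five minutes; 0% = vehicle and 100% = native peptide agonist; compound fluorescence can raise it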
Numbers without * were called inactive; & = joins results of further samples.

The opening four compounds as a preview:
SMILES	NPYLR7 agonist	NPYLR7 agonist max-min
C[C@@H](CN1CCC(n2c(=O)[nH]c3cc(Cl)ccc32)CC1)NC(=O)c1ccc2ccccc2c1	-15	-18
CC(C)=CC(O)(C=C(C)C)c1ccc(CN(Cc2ccc(C)cc2)C2CC2)o1	4	4
Cn1cc(Cl)c(C(=O)Nc2nc3ccccc3s2)n1	0	8
Cc1ccc(C2C(=O)c3ccccc3C2(O)c2ccccc2)cc1 (stereo unspecified)	4	6

All compounds of this part, from the start:
SMILES	NPYLR7 agonist	NPYLR7 agonist max-min
C[C@@H](CN1CCC(n2c(=O)[nH]c3cc(Cl)ccc32)CC1)NC(=O)c1ccc2ccccc2c1	-15	-18
CC(C)=CC(O)(C=C(C)C)c1ccc(CN(Cc2ccc(C)cc2)C2CC2)o1	4	4
Cn1cc(Cl)c(C(=O)Nc2nc3ccccc3s2)n1	0	8
Cc1ccc(C2C(=O)c3ccccc3C2(O)c2ccccc2)cc1 (stereo unspecified)	4	6
CCCCNC(=O)c1cn(CCOC)cc2c(=O)n(-c3ccccc3)nc1-2	4	0
Cc1ccc(NC(=O)C2(C)CCN2C(=O)Cc2cc(F)ccc2F)cc1 (stereo unspecified)	9	8
COc1ccc(-c2cn3c(C)c(C(=O)Nc4ccc(C)cc4C)sc3n2)cc1	0	-1
Cc1cccc(OCCNC(=O)CN2C(=O)NC3(CCC(C)CC3)C2=O)c1 (stereo unspecified)	-1	-6
COc1cccc(N2C(=O)CSC2c2cccc(NC(=O)C(C)(C)CCl)c2)c1 (stereo unspecified)	5	10
CC(C)NC(=O)C1CCN(C(=O)c2ccc(Br)cc2)CC1	7	7
CSC(N)=NC(c1ccc(F)cc1)c1ccc(F)cc1	7	12
COCCN1C(=O)CC(CC(=O)N2CCC(c3ccc(F)cc3)C2)(c2ccccc2OC)C1=O (stereo unspecified)	2	1
CCOc1ccccc1NC(=O)CSc1nc(=O)n(CCCN(CC)CC)c2c1CCC2	-1	6
COCCn1c(C)cc(O)c(C(c2ccncc2)N2CCC(C)CC2)c1=O (stereo unspecified)	10	3
CC(C)c1ccc(NC2CCCN(C(=O)c3ccccc3-c3ncc[nH]3)C2)cc1 (stereo unspecified)	6	2

Copied from the list:
Cc1ccc(NC(=O)C2(C)CCN2C(=O)Cc2cc(F)ccc2F)cc1 (stereo unspecified) in NPYLR7 agonist max-min is entered as 8
COc1cccc(N2C(=O)CSC2c2cccc(NC(=O)C(C)(C)CCl)c2)c1 (stereo unspecified) in NPYLR7 agonist max-min is entered as 10
COCCN1C(=O)CC(CC(=O)N2CCC(c3ccc(F)cc3)C2)(c2ccccc2OC)C1=O (stereo unspecified) in NPYLR7 agonist is entered as 2
C[C@@H](CN1CCC(n2c(=O)[nH]c3cc(Cl)ccc32)CC1)NC(=O)c1ccc2ccccc2c1 in NPYLR7 agonist max-min is entered as -18

The listing continues.
SMILES	NPYLR7 agonist	NPYLR7 agonist max-min
COc1ccc(Cl)cc1N1CCN(S(=O)(=O)c2ccc(C)cc2)C(C)C1=O (stereo unspecified)	-1	10
CCOc1ccc(C(=O)Nc2ccc(Cc3ccncc3)cc2)cc1[N+](=O)[O-]	1	-2
Cc1ccccc1NC(=O)CC(=O)NCCc1ccccc1Cl	-1	-8
Cc1cccc(OCC(=O)N2CCCC2c2nc3ccccc3[nH]2)c1 (stereo unspecified)	3	3
CCN(CC)S(=O)(=O)c1ccc(-c2nc(C#N)c(N3CCc4ccccc4C3)o2)cc1	-2	14
Fc1ccc(C2CC(c3ccc4c(c3)OCO4)=Nc3ncnn32)cc1 (stereo unspecified)	31	16
COc1ccc(-c2csc(NC(=O)Cn3cc(C(F)(F)F)cc(Cl)c3=O)n2)cc1	-2	-3
COc1cc(C(=O)Oc2cccc(Br)c2)cc(OC)c1OC	12	3
CC(C)CCCC(C)[C@H]1CCC2C3CC=C4C[C@@H](O)CC[C@]4(C)C3CC[C@@]21C (stereo partly specified)	-10	-13
COC(=O)c1ccccc1NC(=S)Nc1ccc(OC2CCN(C(=O)OC(C)(C)C)C2)cc1 (stereo unspecified)	-1	-6
CS(=O)(=O)c1ccc(C(=O)Nc2ccc(N3CCc4sccc4C3)nc2)cc1	8	8
CC1CCCCC1NS(=O)(=O)Cc1ccccc1 (stereo unspecified)	-3	-6
Clc1ccccc1Cc1noc(CN2CCCCC2c2ccccn2)n1 (stereo unspecified)	4&-8	-5&-8
O=C(Nc1ccc(-n2nc(OCc3ccc(F)cc3)nc2-c2ccc(C(F)(F)F)cc2)cc1)Nc1ccc(F)cc1F	27	26
CC(=O)Nc1ccc(/C=N\Nc2nc(N3CCOCC3)nc(N3CCOCC3)n2)cc1	-2	-10
O=C(c1ccccc1Cl)N1CCCC(OCc2cc(F)cc(F)c2)C1 (stereo unspecified)	-21	-8
COC(=O)C(=O)N1CCN(c2nccc(-c3ccco3)n2)CC1	-6	-10
CC(=O)c1c(C)n(S(=O)(=O)N(C)C)c2ccc(NS(=O)(=O)N(C)C)cc12	-6	-11
COc1ccc(-c2cc(N)n(-c3ccc(C(=O)N[C@H](CO)Cc4ccccc4)cc3)n2)cc1	-8	-14
CCC1CCCCN1c1nc(-c2ccccc2F)nc2ccccc12 (stereo unspecified)	0	5
COCC(=O)NCCCn1nc(-c2ccccc2)ccc1=O	1	0
CCOc1ccc(CNc2nnnn2C)cc1	4	4
COc1ccc(-c2nn(-c3ccccc3)cc2C=NNC(N)=S)cc1[N+](=O)[O-]	-1	-6
Cc1ccc(CN2CCCC(CNS(C)(=O)=O)C2)c2cccnc12 (stereo unspecified)	1	-2
CCc1nc2n(n1)C(=O)C(C(c1cccs1)N1CCN(CCO)CC1)S2 (stereo unspecified)	-2	-7
Cc1ccccc1-c1cccc(C(=O)N2CC3(CCNCC3)CC2C(=O)O)c1 (stereo unspecified)	12	8
Cc1cc2nc(Sc3nnc(C)s3)c3ccccc3n2n1	-3	-4
CC1CCCC2(C1)OCC(C(=O)NCC1CCCO1)N2C(=O)C1CC1 (stereo unspecified)	4	12
c1ccc2cc(NCc3nnc4n3CCCCC4)ccc2c1	6	4
CCNC12CC3CC(CC(C3)C1)C2	-3	-4

No new results follow: entries from further up.
SMILES	NPYLR7 agonist	NPYLR7 agonist max-min
O=C(c1ccccc1Cl)N1CCCC(OCc2cc(F)cc(F)c2)C1 (stereo unspecified)	-21	-8
COC(=O)C(=O)N1CCN(c2nccc(-c3ccco3)n2)CC1	-6	-10
CC(=O)c1c(C)n(S(=O)(=O)N(C)C)c2ccc(NS(=O)(=O)N(C)C)cc12	-6	-11
COc1ccc(-c2cc(N)n(-c3ccc(C(=O)N[C@H](CO)Cc4ccccc4)cc3)n2)cc1	-8	-14
CCC1CCCCN1c1nc(-c2ccccc2F)nc2ccccc12 (stereo unspecified)	0	5

(list continues)
SMILES	NPYLR7 agonist	NPYLR7 agonist max-min
O=C(CCc1cccnc1)N1CCC(n2cnc3cc(C(F)(F)F)ccc32)CC1	5	14
CS(=O)(=O)c1ccc(CN2C[C@H]3C[C@H](O)[C@H](O)C[C@H]3C2)cc1	1	-3
Cc1cccc(N2C(=O)C(c3c(C)[nH]n(-c4ccc(Cl)cc4)c3=O)=C([n+]3cc(C)cc(C)c3)C2=O)c1	0	9
Cc1ccc(C2c3cccn3CCCN2Cc2cccs2)cc1C (stereo unspecified)	28	25
COc1ccc(CC(=O)N2CCOC(COCc3c(Cl)cccc3Cl)C2)cc1 (stereo unspecified)	-4	-4
O=C(O)C1CC=C(Cl)CC1C(=O)Nc1cncs1 (stereo unspecified)	2	0
COc1ccc(Br)c(C(=O)N2CCC3(CCc4ccccc43)CC2)c1	-1	8
CCOc1ccc(NC(=S)N(C)Cc2cccs2)cc1	4	0
CCCN(CC(=O)NCC(=O)Nc1ccc(OC)cc1)C(=O)C(CC)c1ccccc1 (stereo unspecified)	0	-7
CN(C)[C@@H]1C[C@@H](CO)N(Cc2ccc(Oc3ccccc3)nc2)C1	6	5
Cc1ccc(Nc2nc(N3CCN(C(=O)c4ccco4)CC3)nc3[nH]ncc23)cc1	5	4
COCCNC(=O)Cc1ccc(NS(=O)(=O)c2ccc(NC(C)=O)cc2C)cc1	-7	-8
Cc1c(C(=O)NCc2ccccn2)sc(=O)n1Cc1ccc(C(=O)N(C)C)cc1	-10	-5
COc1ccc(NC(=O)CSc2nnc(CNC(=O)c3ccccc3C(F)(F)F)n2-c2ccc([N+](=O)[O-])cc2)cc1	-6	3
CCCCNc1nnnc2c1sc1nc(N3CCOCC3)c3c(c12)CC(C)(C)OC3	16	9
COc1cc(CN2CCCn3cccc3C2c2cccc(F)c2)cc(OC)c1 (stereo unspecified)	-4	-2
CCc1cc(C(C)Nc2nc(-c3cccnc3)nc3c2CNC3)on1 (stereo unspecified)	-4	-5
Oc1ccc(-c2nnco2)cc1	3	1
O=C(c1cccs1)N(Cc1cc(Cl)ccc1OS(=O)(=O)c1ccc(F)cc1)C1CC1	2	6
Cn1cc(CN2CCC[C@H]2C(N)=O)c(-c2ccc3c(c2)OCCO3)n1	2	-1
O=C(COc1cccc(Cl)c1)Nc1ccc2[nH]cc(CCN3CCN(c4cccc(C(F)(F)F)c4)CC3)c2c1	-14	-9
CC(C)(C)OC(=O)NC1CCN(C(=O)c2cc3ccccc3s2)CC1	0	-2
O=C(Cn1nc(-c2ccco2)oc1=O)Nc1cc(Cl)cc(Cl)c1	8	3
Cc1cc(-n2c(C)cc(C(=O)CN3C(=O)C(=O)N(CCC4=CCCCC4)C3=O)c2C)no1	2	22
Cc1ccc(-c2nc3cc(C)ccn3c2NC(=O)CC(C)C)cc1	-1	7
CCCCCCCOc1ccc(C(=O)N2CCC(c3cn(Cc4cccc(F)c4)c4ccccc34)CC2)cc1	26	15
CC(=O)Nc1nc(SCC(=O)N(C)c2ccccc2)[nH]c(=O)c1NC(=O)c1ccccc1	-2	-3
CC1CC(=O)Nc2c1c(N)nn2C (stereo unspecified)	-3	-6
O=C(CC(c1ccccc1)c1ccccc1F)N1CCC(CO)CC1 (stereo unspecified)	6	4
CNC(=O)[C@H]1C[C@]2(CCCCN(CCO)C2=O)N(C(=O)OCc2ccccc2)[C@H]1c1ccco1	2	13
CCn1c2ccccc2c2cc(/C=N\NC(=O)C(NC(=O)c3ccccc3)c3n[nH]c(=O)c4ccccc34)ccc21 (stereo unspecified)	10	20
O=C(c1cn(C/C=C/c2ccccc2)nn1)N1CCCN(C2CCCC2)CC1	-2	-4
Cc1cc(C(=O)N2CC[C@H](O)[C@@H](O)C2)ccc1F	21	14
O=C(CC1CCOCC1)Nc1cc(Cl)cc(Br)c1O	0	26
Cc1ccc2oc(-c3cc(NC(=O)c4ccco4)ccc3Cl)nc2c1	3	7
O=C(CN1CCCC1)N1N=C(c2ccccc2Cl)CC1c1ccc(Cl)cc1 (stereo unspecified)	0	4
COc1ccc(NC(=O)Cn2c(-n3nc(C)cc3C)nc(-c3ccccc3)cc2=O)cc1OC	-3	3
O=C(N[C@@H]1CCCCC1NC(=O)C1CCCN(C(=O)/C=C/c2ccc([N+](=O)[O-])cc2)C1)c1ccc(F)cc1 (stereo partly specified)	20	24
Cc1ccc(S(=O)(=O)N(C)CC(=O)N2CCOCC2)cc1	-2	-2
COc1ccnc(NCC2(c3ccccc3)CCC2)n1	-12	-9
Cc1ccc(NC(=O)Cn2nc(C(F)(F)F)c(Cl)c2C)cc1C	1	0
CC(C)O[C@H]1CN(C(=O)CCC(=O)NC2CCCC2)C[C@@H]1O	27	11
Cc1cc(Oc2cnn(-c3cccc(F)c3)c(=O)c2Nc2cccc(C(=O)O)c2)ccc1Cl	10	7
Cc1ccn2c(NC(=O)Cc3ccccc3)c(-c3ccccc3C)nc2c1	-6	-2
COc1ccc(OC)c(C(=O)N2CCCC(N3CCN(c4ccccc4C)CC3)C2)c1 (stereo unspecified)	-9&29	-8&20
O=C(NC1CC1)c1cc2n(n1)CCN(Cc1ccccc1Cl)C2=O	-1	8
CCn1nc(C)c(Cn2ccnc2-c2ccccc2SC)c1C	4	2
COc1cccc(C(NC(=O)C2CCN(Cc3ccc(Oc4ccccc4)cc3)CC2)c2ccccn2)c1 (stereo unspecified)	10	-1
Nc1nc(Cl)cc(Oc2ccc(F)cc2)n1	4	5
CN(C(=O)Cn1cnc2c(nnn2-c2cccc(F)c2)c1=O)c1ccccc1	-5	-10
Cc1ccc(CC(NC(=O)Nc2ccn(C)n2)c2ccccn2)cc1 (stereo unspecified)	-3	-10
O=c1cc(-c2ccccc2)[nH]n1-c1c(F)c(F)c(F)c(F)c1F	5	5
Cc1[nH]nc(-n2cnc3ccccc3c2=O)c1-c1ccc(F)cc1	2	0
COc1cc(C#N)cc(Cl)c1OCc1ccc(C#N)cc1	20	18
CC(C)(C)c1ccc(CC(=O)N2CCC2(C)C(=O)NC2CCCCCC2)cc1 (stereo unspecified)	8	3
CC(=O)N1CCC(N2CCC(c3ccccc3Cl)C2)CC1 (stereo unspecified)	2	0
COc1cccc(Cl)c1-c1csc(CN2CCNCC2)c1	8	0
c1ccc(CN2CCC(NCc3ccc(-n4cncn4)cc3)CC2)nc1	18	5
COCCOC(=NCc1ccco1)NC(=O)c1ccc(C(F)(F)F)cc1	-1	-10
COc1cccc(NC(=O)NCCS(=O)(=O)c2c(C)n(Cc3ccccc3)c3ccccc23)c1	1	6
Cc1nnc(SCC(N)=O)c2c1cnn2-c1ccccc1	-10	-15

Retrieved one by one from above (2):
SMILES	NPYLR7 agonist	NPYLR7 agonist max-min
COc1cccc(Cl)c1-c1csc(CN2CCNCC2)c1	8	0
O=C(NC1CC1)c1cc2n(n1)CCN(Cc1ccccc1Cl)C2=O	-1	8

Some of the compounds tested; rates above refer to the full screens.
